# ClpP mod: qHTS Assay for Activators of ClpP. actives 1.9% (n = 340,000). ATP-dependent Clp protease proteolytic subunit (Bacillus subtilis (strain 168)), P80244. AID 651965, 2013. Potency, µM (series often up to 57.5 µM), inactives show at the highest dose activity change, negative = active. purified B. subtilis ClpP, FRET peptide cleavage, 20 min; active = well fitted falling curve with a large enough effect; inconclusive = small, poorly fitted or top-dose-only effect; inactive = no such curve, though single readings can be large or run the other way; also: potency is read from the fitted curve at half-maximal effect; the source files actives as falling curves though it sought activators and does not explain the sign; nearly all actives have a fitted effect of over 65% in size; many hits overshoot -100%
# Target sequence (P80244 whole entry, looked up): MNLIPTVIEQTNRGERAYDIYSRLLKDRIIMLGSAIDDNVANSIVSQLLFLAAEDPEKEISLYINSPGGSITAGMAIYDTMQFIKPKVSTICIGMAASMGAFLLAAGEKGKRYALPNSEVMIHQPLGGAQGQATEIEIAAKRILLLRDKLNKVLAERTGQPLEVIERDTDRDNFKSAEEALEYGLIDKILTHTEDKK
#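 Buffer: 100 mM Tris/HCl pH8, 100 mM KCl, 0.05% low protease BSA, 2.5% glycerol, 0.01% Tween-20. ClpP 10 microg/mL final; 20 min RT; delta FRET normalized to ADEP and DMSO controls.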
# D2 potentiator: Beta-Arrestin HTS for Positive Allosteric Modulators of the Human D2 Dopamine Receptor: Potentiators; D(2) dopamine receptor (Homo sapiens), P14416; DiscoveRx D2 beta-arrestin cells, luminescence, 90 min; 100% = 57 uM dopamine signal; potentiation, % (test concentration not listed); actives 0.23% (n = 360,000); AID 624464, 2012; active = potentiation of 50% or more; inconclusive = 30% to 50%; inactive = 30% or less;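 also: compound concentration not given in the record; tested on top of an EC20 dose of dopamine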
# Target sequence (P14416 whole entry, looked up): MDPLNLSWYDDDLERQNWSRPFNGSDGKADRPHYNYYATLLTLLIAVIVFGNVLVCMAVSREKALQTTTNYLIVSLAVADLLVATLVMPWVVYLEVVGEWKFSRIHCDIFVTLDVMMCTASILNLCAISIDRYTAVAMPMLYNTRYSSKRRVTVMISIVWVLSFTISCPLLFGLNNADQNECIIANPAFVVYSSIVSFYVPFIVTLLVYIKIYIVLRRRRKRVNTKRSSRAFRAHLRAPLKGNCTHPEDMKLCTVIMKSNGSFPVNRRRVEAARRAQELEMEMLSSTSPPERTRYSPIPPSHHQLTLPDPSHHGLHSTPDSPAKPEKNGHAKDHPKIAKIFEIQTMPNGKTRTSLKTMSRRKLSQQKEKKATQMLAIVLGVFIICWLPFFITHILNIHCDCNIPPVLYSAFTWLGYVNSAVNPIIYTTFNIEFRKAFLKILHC
#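 PathHunter beta-arrestin assay in DiscoveRx D2 cells. Compounds were added with an EC20 of dopamine (50 nM final) for 90 min at 37 deg C. Luminescence was read 1 h after detection reagent, with 57 uM dopamine as the EC100 control.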
# Numbers without * were called inactive; ? = inconclusive.
canonical_smiles	ClpP mod	D2 potentiator
CC1(C(=O)NS(=O)(=O)c2ccccc2)CCN1C(=O)c1ccc(C2CCCCC2)cc1 (centres undefined)	-1.1%	-11.3
O=C(NCc1ccccc1)c1cccc2c(-c3ccc(F)c(F)c3)coc12	-4.5%	-10.1
CCCCC1CC2=C(C(=O)OC(C)(C)O2)C(c2cccc3ccccc23)O1 (centres undefined)	-0.7%	-5.5
CC(=O)N1CCN(Cc2cc(=O)oc3cc(C)cc(C)c23)CC1	-5.5%	-7.1
COc1ccccc1-c1cnc(C(O)c2ccc(CN3CCCCC3)cc2)[nH]1 (centres undefined)	-1.1%	-17.2
Nc1cc(N)cc(Cc2ccccc2)c1	-0.4%	-2.7
CC1(C(=O)NS(=O)(=O)c2cccs2)CCN1C(=O)CC1CCCCC1 (centres undefined)	-9.1%	-5.4
COc1ccc(S(=O)(=O)NC(=O)C2(C)CCN2C(=O)Cc2ccc(-c3ccccc3)cc2)cc1 (centres undefined)	1.0%	-2.4

canonical_smiles	ClpP mod	D2 potentiator
Cc1c(C(=O)NCc2cccc([N+](=O)[O-])c2)sc(=O)n1Cc1cccc(F)c1	-1.2%	-5.6
CC(=O)Nc1cccc(-c2ccnc3c2CC(C)(C(=O)NCc2ccco2)O3)c1 (centres undefined)	?	4.0
OC[C@@H]1CN(Cc2ccc(Cl)cc2)C[C@H](n2cnc3c(NCc4ccncc4)ncnc32)O1	-4.2%	-3.2
O=C(NCc1cccs1)c1csc([C@H]2C[C@H](O)[C@@H](CO)O2)n1	0.4%	-5.4
N#Cc1ccc(-c2nc3ccc(Cl)cn3c2Cc2cccc(F)c2)cc1	4.2%	-10.6
OC[C@@H]1CN(Cc2cccc(C(F)(F)F)c2)C[C@H](n2cnc3c(NC4CC4)ncnc32)O1	-0.4%	-12.0
CSc1nc(N)n2nc(C)cc2n1	-0.2%	-6.5
C(=C\c1ccccc1)/CN1CCN(C(c2ccccc2)c2nnnn2C2CCCCC2)CC1 (centres undefined)	-0.5%	-15.0

canonical_smiles	ClpP mod	D2 potentiator
CSc1ccc(-c2cc3c(c4c2ccn4C)C2CCC3C2)cc1 (centres undefined)	4.6%	-0.6
COc1ccc(NC(=O)C2(C)Cc3c(-c4cccc(C(N)=O)c4)ccnc3O2)cc1OC (centres undefined)	0.2%	-6.8
CCOC(=O)C1CCCN(C(=O)c2ccccc2)CC1 (centres undefined)	-1.3%	-23.4
CCCCN(C=O)c1c(CC)nc2c(OCCOc3ccccc3)cccn12	-1.9%	-4.4
N#Cc1ccc(C(=O)N2CCCCC2c2cc(C(=O)Nc3ccccc3Cl)no2)cc1 (centres undefined)	-0.4%	-2.7
CCOC(=O)C1(C)CCCN(C(=O)c2ccc3c(c2)CCO3)C1 (centres undefined)	-1.7%	-1.7
O=C(NCc1ccncc1)c1ccc2nc([C@@H]3O[C@H](CO)[C@H](O)[C@H](O)[C@H]3O)[nH]c2c1	-1.1%	-28.1
Cc1ccc(CN2CC(N3CCN(CC4CC4)CC3)CS2(=O)=O)cc1 (centres undefined)	-0.7%	-14.3

canonical_smiles	ClpP mod	D2 potentiator
CNc1cc(-c2c(OC)cccc2OC)ncn1	-15.1%	-13.6
CCCNC(=O)C1(C)CCCN(C(=O)COCc2ccccc2)C1 (centres undefined)	-0.8%	-11.3
CCc1ccc2c(c1)NC(=O)C2(C)Cc1ccc(Cl)cc1 (centres undefined)	0.7%	-3.2
O=C(NC1CCCCC1)c1cccc2c(-c3ccc(F)c(F)c3)coc12	-8.1%	-8.8
COc1ccc(C2=Nc3ccccc3NC(=O)C2N(CCCn2ccnc2)C(=O)c2cccc(S(C)(=O)=O)c2)cc1 (centres undefined)	-0.8%	-9.9
CCc1nc2ccc(C(=O)NCCCn3ccnc3)cn2c1N(CC)Cc1cccc(Br)c1	-1.7%	-13.5
CC1(C(=O)NS(=O)(=O)c2cccc(C#N)c2)CCN1C(=O)C/C=C/c1ccccc1 (centres undefined)	0.6%	-5.0
c1ccc(-c2cc3nc(NCc4cccs4)ccn3n2)cc1	4.2%	-5.4

canonical_smiles	ClpP mod	D2 potentiator
CNc1cc(C(=O)Nc2cccc(OCc3ccccc3)c2)ncn1	4.4%	-2.5
C=CCNc1nc(NCCNC(C)=O)c2sc(-c3ccccc3)cc2n1	?	-16.3
CC1(C(=O)NS(=O)(=O)c2ccc(F)cc2F)CCN1C(=O)c1ccc(C2CCCCC2)cc1 (centres undefined)	1.6%	-6.7
COc1ccc(CCNC(=O)Nc2nnc([C@@H]3C[C@H](O)[C@@H](CO)O3)s2)cc1OC	2.2%	-4.9
Cc1c(C(=O)N2CCC(C)(C(=O)NS(=O)(=O)C3CC3)C2)oc2ccccc12 (centres undefined)	-0.5%	-10.8
CCCNC(=O)c1cc(C2CCCN(C(=O)C3CCCCC3)C2)on1 (centres undefined)	-1.9%	1.7
CC(=O)Nc1cc(-c2ccc(CO)cc2)cn2c(-c3ccc(F)cc3)cnc12	4.8%	-18.6
COc1ccc(-c2cc(NC=O)c3ncc(-c4ccc(OC)c(OC)c4)n3c2)cc1	?	4.3

canonical_smiles	ClpP mod	D2 potentiator
COc1cc(C(O)c2nc(-c3cc4ccccc4o3)cs2)ccc1F (centres undefined)	-7.0%	-7.7
COc1ccc(NC(=O)c2cc(-c3cc(C)cs3)[nH]n2)cc1OC	-1.0%	-14.1
NC(c1ccccc1)c1csc(Nc2ccc(C(=O)NCCO)cc2)n1 (centres undefined)	-10.9%	-6.1
OC[C@@H]1CN(Cc2ccc(-c3ccccc3)cc2)C[C@H](n2cnc3c(NCc4ccco4)ncnc32)O1	1.1%	8.7
COc1cc(-c2cnc3c(NC=O)cc(-c4ccc(S(C)(=O)=O)cc4)cn23)cc(OC)c1OC	-12.9%	1.7
CNc1ncnc2c1ncn2[C@H]1CN(Cc2ccc(Cl)cc2)C[C@@H](CO)O1	1.3%	-0.7
CCCNC(=O)C1(C)CCCN(Cc2noc(-c3c(C)noc3C)n2)C1 (centres undefined)	0.3%	-6.2
Cc1ccc(F)c(S(=O)(=O)NC(=O)C2(C)CCN2C(=O)Cc2ccc(Cl)cc2Cl)c1 (centres undefined)	-1.1%	-0.1

# Profiles from above. Values in the order: ClpP mod, D2 potentiator
# NC(c1ccccc1)c1csc(Nc2ccc(C(=O)NCCO)cc2)n1 (centres undefined) reads -10.9%, -6.1
# COc1ccc(NC(=O)c2cc(-c3cc(C)cs3)[nH]n2)cc1OC reads -1.0%, -14.1
# Cc1ccc(F)c(S(=O)(=O)NC(=O)C2(C)CCN2C(=O)Cc2ccc(Cl)cc2Cl)c1 (centres undefined) reads -1.1%, -0.1

# The list goes on.
canonical_smiles	ClpP mod	D2 potentiator
O=C(Nc1ccc(F)c(Cl)c1)c1cc(C2CCCN(C(=O)C3CC3)C2)on1 (centres undefined)	-2.9%	-8.9
COc1ccc(CNC(=O)c2ccc3nc(C)c(N(C)Cc4ccc(NC(C)=O)cc4)n3c2)cc1	-2.1%	-1.0
O=C(Nc1cccc(C(F)(F)F)c1)c1ccc(-c2ccc(F)c(F)c2)c2ccoc12	-9.7%	-8.7
O=C(NCc1ccncc1)C1Cc2c(-c3ccc(Cl)cc3)ccnc2O1 (centres undefined)	-5.7%	-1.1
COc1cc(C)ccc1S(=O)(=O)NC(=O)C1(C)CCN1C(=O)Cc1ccccc1Cl (centres undefined)	0.0%	-0.7
Fc1cccc(Cc2c(-c3cccc(Br)c3)nc3ccc(Cl)cn23)c1	?	-5.7
Nc1nc(N)c2c(ccc3c2ccn3Cc2cccc([N+](=O)[O-])c2)n1	-7.2%	2.5
Cc1cccnc1C(NC(=O)C1CCN(Cc2ccc(Cl)cc2)CC1)c1ccc(F)cc1 (centres undefined)	0.8%	-15.8

canonical_smiles	ClpP mod	D2 potentiator
CC(C)=CCC[C@H](C)CC1Cc2[nH]c(=S)[nH]c(=O)c2C(c2ccc(F)cc2)O1 (some centres undefined)	-1.0%	-5.1
CCCCCCN1CCN(C2CN(Cc3ccc(C)cc3)S(=O)(=O)C2)CC1 (centres undefined)	-0.8%	-12.3
CC1=C(C(=O)N(C(C)C)C(C)C)CC(CC(=O)NCC2CCCCC2)C(=O)N1Cc1ccc(F)cc1 (centres undefined)	1.1%	1.8
COc1ccc(CN2C(=O)C(CC(=O)NCCCN(C)C)CC(C(=O)N3CCOCC3)=C2C)cc1 (centres undefined)	2.4%	-1.4
COc1ccc(-c2ccc(C(=O)Nc3ccc(Cl)cc3)c3occc23)c(C)c1	4.7%	-13.4
CC1(C(=O)NS(=O)(=O)Cc2ccccc2)CCN1C(=O)c1ccc(C2CCCCC2)cc1 (centres undefined)	0.1%	-5.0
COc1ccc(-c2cc(NC=O)c3ncc(-c4ccc(OC)c(OC)c4)n3c2)c(OC)c1	-28.1%	1.5
Cc1cn([C@H]2C[C@H](O)[C@@H](CCC(=O)NCC(c3ccccc3)c3ccccc3)O2)c(=O)[nH]c1=O	3.6%	-1.0

canonical_smiles	ClpP mod	D2 potentiator
CN1CCN(c2ncnc3c2ncn3[C@H]2CN(Cc3ccccc3)C[C@@H](CO)O2)CC1	-0.1%	-17.2
CCc1nc2ccc(C(=O)N(C)Cc3ccco3)cn2c1N(C)Cc1ccc(OC)cc1	-3.4%	-8.6
CCOC(=O)C1(C)CCCN(C(=O)c2ccccc2)C1 (centres undefined)	0.6%	-5.6
CCCS(=O)(=O)NC(=O)C1(C)CCCN(C(=O)c2cncc(Br)c2)C1 (centres undefined)	0.3%	-0.4
CCOC(=O)C1=CCC2C(=O)N(C3CCCCC3)C(=O)C12 (centres undefined)	1.9%	1.4
CCc1nc2ccc(C(=O)N3CCCC(C(N)=O)C3)cn2c1N(CCC(C)C)CCN(C)C (centres undefined)	-1.9%	-2.2
Cc1ccc(CN2C(=O)C(C)Oc3ccc(C)cc32)cc1 (centres undefined)	-1.6%	-7.1
CC(C)S(=O)(=O)N1CCCC(c2cc(C(=O)Nc3ccc(F)c(Cl)c3)no2)C1 (centres undefined)	0.6%	-4.0

# Another view of part of the listing above:
SMILES: CCc1nc2ccc(C(=O)N3CCCC(C(N)=O)C3)cn2c1N(CCC(C)C)CCN(C)C (centres undefined)
  ClpP mod: -1.9%
  D2 potentiator: -2.2
SMILES: CCOC(=O)C1(C)CCCN(C(=O)c2ccccc2)C1 (centres undefined)
  ClpP mod: 0.6%
  D2 potentiator: -5.6
SMILES: CN1CCN(c2ncnc3c2ncn3[C@H]2CN(Cc3ccccc3)C[C@@H](CO)O2)CC1
  ClpP mod: -0.1%
  D2 potentiator: -17.2

# (list continues)
canonical_smiles	ClpP mod	D2 potentiator
C(=C\c1ccccc1)/CN1CCN(C(c2cccs2)c2nnnn2C2CCCC2)CC1 (centres undefined)	-3.4%	-13.9
CCc1nc2ccc(C(=O)NCCCn3ccnc3)cn2c1N(C)CCCc1ccccc1	?	-8.9
CCOC(=O)C1(C)CCN1C(=O)c1ccc(OC)c(F)c1 (centres undefined)	-0.6%	-1.1
CCCS(=O)(=O)NC(=O)C1(C)CCCN(C(=O)c2cccc(C(F)(F)F)c2)C1 (centres undefined)	2.7%	1.3
CCc1nc2c(OCc3ccc(C(F)(F)F)cc3)cccn2c1N(C)C(=O)C1CC1	1.2%	-8.2
Cn1ccc2c(N3CCCCC3)cc3c(c21)C1CCC3O1 (centres undefined)	-0.8%	-4.3
COc1ccc2c(c1)CO[C@@]21O[C@H](CCO)C[C@H](O)[C@H]1O	-0.6%	-11.8
COc1ccc(-c2coc3c(C(=O)NC(C)C)cccc23)c(C)c1	-7.7%	-12.2

canonical_smiles	ClpP mod	D2 potentiator
COc1ccc(NC(=O)c2sc(=O)n(Cc3ccc(SC)cc3)c2C)cc1OC	-0.7%	-0.5
CCOC1=C2[C@H](c3ccccc3F)N(S(=O)(=O)c3ccc(C)cc3)C[C@H]2n2c(=O)n(-c3ccccc3)c(=O)n2C1	-5.0%	-4.7
CCO/C(C)=N/Oc1cncnc1	-0.6%	2.3
COc1ccc(-c2cc3c(c4c2ccn4C)C2CCC3C2)cc1OC (centres undefined)	4.9%	6.1
CNC(C)C(=O)NC(C(=O)N1CCCC1C(=O)Nc1ccc2[nH]ccc2c1)C(C)C (centres undefined)	-2.0%	-3.8
Cn1cc(-c2coc3c(C(=O)Nc4ccccc4)cccc23)cn1	-16.0%	-1.6
CCc1nc2ccc(C(=O)NCCOc3ccc(OC)cc3)cn2c1N(C)C(=O)Cc1ccccc1	-3.8%	-1.9
NC(CCc1ccccc1)c1csc(Nc2ccccn2)n1 (centres undefined)	-5.2%	-13.8

canonical_smiles	ClpP mod	D2 potentiator
CCOc1ccc(Cl)cc1-c1cc(C(=O)Nc2ccc(C(C)C)cc2)[nH]n1	-16.2%	-14.3
CC1(C(=O)Nc2ccc3c(c2)OCCO3)CCN1Cc1ccc2ccccc2c1 (centres undefined)	-6.3%	-8.0
O=C(Nc1cccc2c1CCCC2)c1cc(C2CCCCN2C(=O)CCCc2ccccc2)on1 (centres undefined)	-5.5%	-3.2
CC1(C(=O)NS(=O)(=O)c2ccc(F)cc2F)CCN1C(=O)C1(c2ccc(Cl)cc2)CC1 (centres undefined)	1.4%	7.2
COc1cc2oc(=O)cc(CN3CCCCC3)c2cc1Cl	?	-9.1
Cn1cc(-c2coc3c(C(=O)NCc4cccs4)cccc23)cn1	-1.5%	4.4

# High-throughput results as filed in PubChem.

# Some of the compounds tested (hit frequency here may not be typical).
